SARS PLpro yeast – blocks SARS-CoV papain-like protease in a yeast assay; S. cerevisiae expressing SARS-CoV PLpro, growth rescue; control for the full effect not named in the record; Potency, µM (series often up to 32.9 µM), without a hit: at the top dose activity, positive = growth rescue; hit rate 0.19% among 330,000; active means well fitted rising curve with a large enough effect; inconclusive means small, poorly fitted or top-dose-only effect; inactive means no such curve, though single readings can be large or run the other way; also: 0% is about no effect; nearly all actives have a fitted effect of over 55% in size; growth read by luminescence after 48 h
Cruzain inh Det – cruzain (T. cruzi) inhibition with detergent; Potency, µM, without a hit: max response, negative = inhibition, hits mostly inhibitors; purified cruzain, Z-FR-AMC fluorescence, 0.01% Triton; AID 1478; P25779; hit rate 0.43% among 200,000;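 also: plate controls were neutral wells for no effect and buffer without enzyme for full effect; nearly all actives have a fitted effect of over 40% in size; top concentration of the series not given in the record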
Target sequence (P25779 123-467 limits assumed): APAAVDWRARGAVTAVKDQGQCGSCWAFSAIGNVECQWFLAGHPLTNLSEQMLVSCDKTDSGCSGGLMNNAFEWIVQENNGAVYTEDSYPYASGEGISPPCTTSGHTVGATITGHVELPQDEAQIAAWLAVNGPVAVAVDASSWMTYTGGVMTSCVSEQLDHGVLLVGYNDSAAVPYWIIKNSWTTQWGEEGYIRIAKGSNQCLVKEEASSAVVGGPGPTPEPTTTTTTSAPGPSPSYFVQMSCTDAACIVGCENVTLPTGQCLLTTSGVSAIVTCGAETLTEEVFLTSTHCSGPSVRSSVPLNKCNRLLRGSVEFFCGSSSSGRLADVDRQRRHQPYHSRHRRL
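Steps: dispense cruzain (1.5 nM final) in acetate buffer pH 5.5 with DTT and 0.01% Triton X-100; pin-transfer compounds; incubate 15 min RT; add Z-FR-AMC (2 uM final); read fluorescence every 30 s, using the 60 s intensity change.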
Lassa entry inh – Lassa virus entry inhibition; hit rate 1.2% among 300,000; Lassa virus pseudotype entry inhibition, cell reporter; control for the full effect not named in the record; Potency, µM (series often up to 37.9 µM), inactives show at the highest dose activity change, negative = inhibition, most hits filed as inhibitors; AID 540256; active means well fitted inhibition curve with a large enough effect; inconclusive means small, poorly fitted or top-dose-only effect, or effect the other way; inactive means flat fitted curve, though single readings scatter; tested in HEK293 cells; also: % is scaled to controls: 0 for no effect and ±100 for the full control effect; nearly all actives have a fitted effect of over 50% in size; luciferase read-out
NS1 function inh – inhibitors of influenza NS1 protein function; hit rate 0.4% among 270,000; Potency, µM (top dose mostly 46.1 µM), for inactives: top-dose activity, positive = more growth; S. cerevisiae slowed by influenza A NS1, growth recovery by OD600; active means well fitted rising curve with a large enough effect; inconclusive means small, poorly fitted or top-dose-only effect; inactive means no such curve, though single readings can be large or run the other way; also: nearly all actives have a fitted effect of over 50% in size
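Recovery from NS1-induced slow growth read by OD600 in budding yeast switched to galactose assay medium (pH 6.0, -URA) at 1:100 dilution. Compound 23 nl per well; the matching strain lacking NS1 serves as control.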
Cruzain noTriton – cruzain (T. cruzi) inhibition without detergent; purified cruzain, Z-FR-AMC fluorescence, no detergent; P25779; Potency, µM, inactives show max response, negative = inhibition, usual class: inhibitors; hit rate 2.3% among 200,000;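 also: plate controls were enzyme without inhibitor for no effect and buffer without enzyme for full effect; nearly all actives have a fitted effect of over 40% in size; top concentration of the series not given in the record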
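Detergent-free condition (0.00005% Triton X-100) in acetate buffer pH 5.5 with DTT. 1.5 nM enzyme and compound were pre-mixed 15 min, then 2 uM Z-FR-AMC substrate added; reaction progress from fluorescence change between first and third reads (60 s).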
2A StopGo – FMDV 2A StopGo reporter, luciferase signal; hit rate 1.2% among 410,000; human cells with a luciferase reporter of 2A StopGo recoding; control for the full effect not named in the record; Potency, µM (top dose mostly 57.9 µM), inactives show at the top dose signal change, negative = less light; AID 1159524; active = well fitted falling curve with a large enough effect; inconclusive = small, poorly fitted or top-dose-only effect; inactive = no such curve, though single readings can be large or run the other way; tested in HEK293T cells; also: % is scaled to controls: 0 for no effect and ±100 for the full control effect; nearly all actives have a fitted effect of over 45% in size; luciferase light after 4 h
Marburg entry inh – Marburg virus entry inhibition; Marburg virus pseudotyped entry inhibition, cell reporter; control for the full effect not named in the record; about a third of the inactives were read at about 46 µM; Potency, µM (titrated, usually from 37.8 µM), for the others: at the top dose activity change, negative = inhibition, usual class: inhibitors; hit rate 1.8% among 300,000; AID 540276; active = well fitted inhibition curve with a large enough effect; inconclusive = small, poorly fitted or top-dose-only effect, or effect the other way; inactive = flat fitted curve, though single readings scatter; tested in HEK293 cells; about a fifth of its hits are not listed in these tables; also: % is scaled to controls: 0 for no effect and ±100 for the full control effect; luciferase read-out
RE007 growth inh – less growth of the S. pombe RE007 Vpr strain | S. pombe RE007 Vpr strain, BacTiter-Glo ATP luminescence, 24 h; control for the full effect not named in the record | Potency, µM (highest dose often 92.2 µM), inactives show top-dose activity change, negative = less growth | hit rate 0.21% among 360,000; active = well fitted falling curve with a large enough effect; inconclusive = small, poorly fitted or top-dose-only effect; inactive = no such curve, though single readings can be large or run the other way;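 also: % is scaled to controls: 0 for no effect and ±100 for the full control effect; nearly all actives have a fitted effect of over 50% in size; the assay follows cell death caused by Vpr and the record does not say whether a fall means rescue or toxicity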
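Fission yeast strain RE007, carrying one chromosomally integrated HIV-1 vpr copy, was seeded at OD 0.01 in PMG+AL medium with 23 nL pinned compound. After 24 h at 30 °C and 99% humidity, viability was read by BacTiter-Glo luminescence.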
Active calls of the source: *; ? = inconclusive; . = no result given; & = joins results of further samples; [ ] = remark or other dose. Unless noted, calls follow the shape of the dose curve; as a rule, active = well fitted curve in the direction sought with a large enough effect; inconclusive = small, poorly fitted or top-dose-only effect, or another doubt; inactive = no such curve, though single readings can be large; an effect the other way counts as inactive or inconclusive. Potency is read from the fitted curve at half-maximal effect.

Order of results: Cruzain noTriton	NS1 function inh	RE007 growth inh	Lassa entry inh	Marburg entry inh	2A StopGo	SARS PLpro yeast	Cruzain inh Det
O=C(c1ccc(Br)o1)N1CCN(c2ccccn2)CC1
  4%	-2%	-3%	-6%	-5%	5%	-3%	2.3%
CCCCCn1c(CN2CCCCC2C)nc2c1c(=O)n(C)c(=O)n2C (stereo not drawn)
  -1%	1%	-19%	1%	-13%	-9%	-6%	4.4%
CC(C)C1C2=C(CC(C)(C)CC2=O)ON1c1ccccc1 (stereo not drawn)
  -18%	-2%	12%	8%	-3%	.	4%	-3.8%
Cn1c(=O)c2nc(NCc3ccccc3)sc2n(C)c1=O
  .	.	-5%	7%[46.1 µM]	6%[46.1 µM]	-19%	.	.
N#CC(C#N)=Cc1cnc(N2CCN(c3ccccc3)CC2)s1
  .	0%	2%	8%[46.1 µM]	-1%[46.1 µM]	-12%	0%	.
Cc1cc(/C=C2\C(=N)N3C(SCc4ccccc4)=NSC3=NC2=O)c(C)n1Cc1ccccc1
  3.2µM*	5%	-8%	11%	12%	-3%	8%	-3.6%
NS(=O)(=O)c1ccc(NC(=S)NC(=O)c2cccnc2)cc1
  .	8%	-7%	3%	7%[46.1 µM]	15%	0%	.
O=[N+]([O-])c1ccc(S(=O)(=O)NCC2CC3CCC2C3)cc1 (stereo not drawn)
  .	-36%	11%	.	.	31%[activator]	-5%	.
CCCCNC(=O)Nc1cc(C(=O)OC)ccc1C
  -9%	-1%	1%	?	2%	7%	2%	3.1%
O=C(/C=C/c1cccs1)Nc1ccncc1
  -2%	7%	-20%	13%	-1%	36%[activator]	-5%	-8.0%
CCc1cc(=O)[nH]c(-n2[nH]c(-c3ccccc3)cc2=O)n1
  .	.	-5%	8%	1%[46.1 µM]	9%	2%	.
O=C(c1nc2ncccn2n1)N1CCN(c2ccc(F)cc2)CC1
  -2%	10%	8%	-8%	7%[46.1 µM]	-12%	-1%	-0.2%
COc1cc(-c2nnc(CSc3nc4ccccc4s3)o2)cc(OC)c1OC
  ?	-14%	.	.	0%	.	2%	-6.2%
O=C(CCCn1c2ccccc2c(=O)c2ccccc21)Nc1ccc(F)cc1Cl
  13%	.	.	-4%[46.1 µM]	.	-9%	.	-1.1%
O=C(CCNC(=O)C1CCN(S(=O)(=O)c2ccccc2)CC1)NCc1ccc(Cl)cc1
  .	7%	-6%	.	.	-16%	-6%	.
CC1CCCC(NC(=O)COc2ncnc3ccccc23)C1C (stereo not drawn)
  .	.	-7%	2%	-1%	-24%	?	.
N#C/C(=C\c1sc(N2CCOCC2)nc1-c1ccccc1)C(=O)Nc1cccc2ccccc12
  ?	-3%	.	0%	27%	.	15%	-1.8%
CCc1ccc(NC(=O)c2ccccc2Br)cc1
  .	.	1%	-29%	?	51%[activator]	-7%	.
CN(C(=O)COn1nnc2ccc(S(=O)(=O)N3CCOCC3)cc21)c1ccccc1
  .	.	-2%	?	-2%	-24%	-1%	.
CCOC(=O)c1c(-c2ccc(C)o2)csc1NC(=S)NC(=O)c1ccc(F)cc1
  2%	6%	-12%	-4%	-4%	?	8%	-1.0%
NC(=O)Nc1ccc(Oc2ncc(C(F)(F)F)cc2Cl)cc1
  .	.	30%	8%	-2%&-2%[46.1 µM]	-18%	-1%	.
O=C(Nc1ccc(F)cc1F)c1cccc2c1C(=O)N(C1CCCCC1)C2
  -3%	.	.	?	16%[46.1 µM]	-18%	.	-14%
Oc1ccccc1CN1CCN(C(c2ccccc2)c2ccccc2)CC1
  .	-32%	0%	.	.	-26%	2%	.
CNC(=O)c1cccn(Cc2cccc(C(F)(F)F)c2)c1=O
  .	-5%	11%	?	?	-17%	-1%	.
CCN(CC)C(=O)c1ccc(CS(=O)(=O)c2ccc(OC)cc2)o1
  -6%	-2%	0%	.	.	-15%	0%	-2.9%
Cc1ccccc1-c1nnc(-c2ccc(Br)cc2)o1
  -7%	-20%	-18%	17%	14%	32%[activator]	6%	6.4%
CCOc1ccc(C(=O)Nc2nc(C)c(C(=O)OC)s2)cc1
  .	-3%	-15%	24%[46.1 µM]	?	21%	0%	.
CCN(CC)S(=O)(=O)c1ccc(NC(=O)Cn2c(=O)sc3ccccc32)cc1
  -11%	-36%	-9%	?	-19%&-19%	0%	1%	-2.0%
Cc1ccc(CNC(=O)c2ccc3c(c2)N(Cc2cccc(Cl)c2)C(=O)CS3)cc1
  ?	.	.	-21%[46.1 µM]	?	-10%	.	-2.4%
CCCN(C(=O)/C=C/c1ccc(S(=O)(=O)N(CC)CC)cc1)C1CCS(=O)(=O)C1 (stereo not drawn)
  .	.	-14%	?	5%	0%	0%	.
COc1ccc(N2CCN(C(=O)COc3ccccc3C#N)CC2)cc1
  -5%	.	.	.	6%[46.1 µM]	2%	.	-0.1%
Cc1cc(Cl)ccc1C(=O)C1CCCN(C(=O)CCN2CCCO2)C1 (stereo not drawn)
  .	1%	8%	-23%[46.1 µM]	-11%[46.1 µM]	-5%	0%	.
O=C(NCC1CCCO1)C1CCN(C2CCN(C(=O)CC3CCCC3)CC2)CC1 (stereo not drawn)
  .	6%	7%	12%	-12%[46.1 µM]	-13%	0%	.
CC(C)CC(=O)NC(=S)Nc1cc(C(F)(F)F)ccc1N1CCOCC1
  -3%	11%	.	-7%	?	0%	3%	-9.7%
Nc1nonc1-c1nc2ccccc2n1CC(=O)N/N=C\c1ccc(-c2ccc(Cl)cc2)o1
  4µM*	-4%	-1%	16%	8%	0%	3%	-4.2%
CCn1nc(C)c(/C=N/NC(=O)Cc2ccc(Cl)cc2)c1C
  2%	0%	2%	7%	?	34%[activator]	0%	-3.6%
COc1cccc(C(=O)Nc2cccc(-c3nc4ncccc4o3)c2C)c1
  7%	-13%	4%	1%	-1%	-10%	2%	-0.2%
Cc1ccc(-c2nnc(SCC(=O)Nc3sc(C)c(C)c3C#N)n2C)cc1
  ?	18%	-3%	13%	?	-16%	5%	0.8%
CC(C)C[C@H](NC(=O)N1CCn2c1nc1ccccc12)C(=O)N1CCCCC1
  .	-15%	-2%	.	.	-3%	3%	.
Cc1cn(C(=O)c2cccc(Br)c2)c(C)n1
  -4%	-5%	-14%	21%	7%	11%	-2%	-0.4%
C[C@@H]1CC2(CCCC[N+]2(C)C)C[C@H]1C
  .	.	5%	4%	3%[46.1 µM]	-1%	-2%	.
CC(=O)Nc1ccc(NC(=O)C2CCN(S(=O)(=O)c3ccc4c(c3)CCCC(=O)N4)CC2)cc1
  -4%	.	.	16%[46.1 µM]	.	-16%	.	0.1%
O=C(N/N=C/C(Cl)=C/c1ccc([N+](=O)[O-])cc1)C(=O)Nc1cccc(C(=O)O)c1
  .	18%	-19%	.	.	27%	-1%	.
Cc1ccc(-c2nnc(CSc3nc(C(C)C)nc4sc(C)c(C)c34)o2)cc1
  ?	-1%	-2%	-5%	?	-21%	22%	-5.0%
COc1ccc(C2=NOC(C(=O)NCc3cccnc3)C2)cc1 (stereo not drawn)
  .	8%	2%	28%[46.1 µM]	-3%[46.1 µM]	18%	-1%	.
COC(=O)c1c(NC(=O)c2ccc(OC(C)C)cc2)sc2c1CC(C)(C)NC2(C)C
  .	10%	-10%	.	.	-11%	2%	.
CCOc1ccc2nc(SCC#N)c(C#N)cc2c1
  2%	2%	-10%	-8%	?	0%	-7%	1.3%
COc1ccc(NC(=O)C2=C(C)Nc3nc(SCc4ccccc4C)nn3C2c2ccc(Br)cc2)cc1 (stereo not drawn)
  -10%	.	.	-1%[46.1 µM]	-7%[46.1 µM]	0%	.	-1.3%
COc1cc(C(=O)NCC(=O)NCCN2C(=O)S/C(=C\c3ccc4c(c3)OCO4)C2=O)cc(OC)c1OC
  .	.	11%	10%	?	10%	5%	.
CC(C)C1CC(C(F)(F)F)n2nc(C(=O)O)cc2N1 (stereo not drawn)
  .	1%	14%	4%	?	2%	0%	.

(next part)
Order of results: Cruzain noTriton	NS1 function inh	RE007 growth inh	Lassa entry inh	Marburg entry inh	2A StopGo	SARS PLpro yeast	Cruzain inh Det
COc1ccccc1N1CCN(CC(O)COc2ccc(C)c(C)c2)CC1 (stereo not drawn)
  .	-1%	-5%	-18%	?	-26%	2%	.
CC1CCN(C(=O)CCNC(=O)c2ccccc2Cl)CC1
  .	-7%	-13%	3%[46.1 µM]	?	19%	-1%	.
COc1cccc(CNC(=O)CCC2CCCN(C(=O)c3ccc(F)c(Cl)c3)C2)c1 (stereo not drawn)
  .	-14%	4%	-11%	2%	?	1%	.
CCOC(=O)C1=C(CC)Nc2ccccc2N=C1NC(=O)c1ccc(C)c(S(=O)(=O)N2CCOCC2)c1
  .	.	-2%	-10%	?	13%	-4%	.
COc1cc(CN(C)c2ncnc3sccc23)ccc1OC(F)F
  .	-8%	4%	-11%	2.8µM*	?	0%	.
COc1ccccc1NC(=O)C1=C(C)NC(=O)NC1c1cccc(OC)c1OC (stereo not drawn)
  -9%	-10%	10%	10%	1%	2%	4%	0.5%
Cn1nnnc1SCCNCc1ccccc1Cl
  7%	.	.	19%[46.1 µM]	-6%[46.1 µM]	4%	.	-0.7%
COc1ccc(C(c2nnnn2C2CCCC2)N2CCC(C)CC2)c(OC)c1 (stereo not drawn)
  -15%	-18%	9%	?	?	-4%	-5%	5.3%
O=C(NCC1CCCO1)c1c(O)nc2sccn2c1=O (stereo not drawn)
  .	.	2%	8%	-14%[46.1 µM]	-14%	-2%	.
O=C(CN(Cc1ccccc1)S(=O)(=O)c1ccccc1)N/N=C/c1ccccc1[N+](=O)[O-]
  -2%	20%	-4%	?	?	.	2%	-2.7%
CC(C(=O)Nc1ccccc1)n1nnc2sc3c(c2c1=O)CCCC3 (stereo not drawn)
  -25%	.	.	6%[46.1 µM]	-2%[46.1 µM]	-26%	.	-8.4%
CCCn1c(N)c(C(=O)CSc2nnc3n2CCCCC3)c(=O)n(C)c1=O
  .	.	-7%	?	9%	-14%	-10%	.

From PubChem BioAssay

Not a hit list. About 4.8% of those tested had a hit in this group.
